Screening data (PubChem BioAssay)
HNF4A DNA FP: change in binding of human HNF4 alpha to DNA; hit rate 0.3% among 360,000; AID 1224865; HNF4a-FITC DNA binding, fluorescence polarization, 1 h; activity change, % at 10 µM; P41235; in the data active = activity change above about 30%, passing the limit was not always enough;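 also: controls were the assay level and a saturating level of protein; the project sought stronger binding though the title names inhibitors; some compounds called inactive have numbers as strong as hits; positive values seem to mean higher polarization but the record does not say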
UCH37 inh: inhibitors of human deubiquitinating enzyme UCH37; inhibition, % (concentration not given with the values); hit rate 0.33% among 330,000; Q9Y5K5; purified proteasome/UCH37, Ub-AMC cleavage fluorescence;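 active = mean of two replicates above 20%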;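 also: 0% = compound-free wells with enzyme and 100% = wells lacking proteasome; stock transfer was 100 nL into about 20 µL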
Target sequence (Q9Y5K5 whole entry, looked up): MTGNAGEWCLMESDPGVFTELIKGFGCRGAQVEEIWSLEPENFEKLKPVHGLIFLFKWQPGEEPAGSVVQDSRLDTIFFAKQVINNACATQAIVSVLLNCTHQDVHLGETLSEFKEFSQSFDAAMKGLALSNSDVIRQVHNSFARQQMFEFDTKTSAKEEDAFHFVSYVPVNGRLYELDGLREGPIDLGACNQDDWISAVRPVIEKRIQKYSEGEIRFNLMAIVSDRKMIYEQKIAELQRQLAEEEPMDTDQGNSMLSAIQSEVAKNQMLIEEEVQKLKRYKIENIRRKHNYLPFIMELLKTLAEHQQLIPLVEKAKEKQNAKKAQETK
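System: Proteasome-associated human UCH37 deubiquitinase; Input: 0.15 nM proteasome in added enzyme buffer; Also added: Ub-AMC substrate from 1 µM stock; Incubation: 30 min compound-proteasome preincubation then 25 min substrate reaction, room temperature; Detection: fluorescence, ex 355 nm, em 460 nm; Read-out: % inhibition of Ub-AMC cleavage fluorescence; Benchmarks: no-proteasome and no-compound wells.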
MLL AF4-AF9 inh: blocks AF4 peptide binding to human AF9; AlphaScreen, biotin-AF4 peptide binding to FLAG-AF9; inhibition, % at 10 µM; hit rate 0.47% among 350,000; AID 651704;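 active = every replicate reaching a set inhibition limit, whatever the replicate mean, cut at about 25% in these data; inconclusive = mean inhibition reaches that limit but some replicates miss it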;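 also: 0% = plate neutral control median and 100% = total signal loss; the record names both 10 and 1 µM as test concentration; the first replicate is given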
Target sequence (P42568 whole entry, looked up): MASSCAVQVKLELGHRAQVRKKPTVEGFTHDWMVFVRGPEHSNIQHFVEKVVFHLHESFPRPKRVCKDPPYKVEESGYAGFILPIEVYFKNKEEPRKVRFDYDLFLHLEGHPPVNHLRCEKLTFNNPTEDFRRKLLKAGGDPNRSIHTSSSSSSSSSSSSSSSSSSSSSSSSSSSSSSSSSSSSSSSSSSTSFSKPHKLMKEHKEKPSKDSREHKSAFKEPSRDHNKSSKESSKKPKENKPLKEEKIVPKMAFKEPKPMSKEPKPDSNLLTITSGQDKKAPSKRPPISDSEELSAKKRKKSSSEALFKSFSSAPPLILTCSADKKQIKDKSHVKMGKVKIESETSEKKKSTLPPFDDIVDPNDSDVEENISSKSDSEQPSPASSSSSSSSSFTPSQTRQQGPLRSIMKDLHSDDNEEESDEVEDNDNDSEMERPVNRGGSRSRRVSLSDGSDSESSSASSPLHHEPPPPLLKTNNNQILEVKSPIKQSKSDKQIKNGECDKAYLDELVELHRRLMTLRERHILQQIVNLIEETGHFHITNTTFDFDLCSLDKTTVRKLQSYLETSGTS
RanGTP-Impb inh: disruptors of Ran-importin-beta complex formation – biochemical, FRET, CFP-Ran, YFP-importin-beta, homogeneous, primary screen; inhibition, % (no concentration beside the values); hit rate 1.1% among 300,000; cell-free CFP-Ran/YFP-importin-beta FRET ratio; AID 2216;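 active = most replicates above 15%; inconclusive = exactly half above 15%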;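 also: 0% = DMSO wells and 100% = Ran loaded with GDP instead of GTP; wells of about 40 µL received 100 nL stock; the first replicate is given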
Vif TR-FRET: HIV-1 Vif–A3G interaction blockers – biochemical, TR-FRET, GST-Vif 1-94, biotin-A3G peptide, dose response retest, primary screen (AID 1117319); TR-FRET GST-Vif / biotin-A3G peptide binding; higher % means a stronger effect; test concentration not given here; strong numbers were not always called active; one-dose inhibition, %; IC50 in µM for titrated hits; hit rate 0.57% among 260,000;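 active = above the screen mean plus three standard deviations and confirmed in dose response; inconclusive = results disagree or hit not tested in dose response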;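 also: Vif residues 1-94 fused to GST binding biotinylated APOBEC3G peptide 110-148; 0% = full assay without inhibitor and 100% = GST in place of GST-Vif; retest series ran down from 100 µM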
Ecoli growth: E. coli growth inhibition; hit rate 0.21% among 330,000; OD600 absorbance (test concentration not listed); Escherichia coli growth, OD600, 23 h; stronger effect = lower value;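 active = OD600 absorbance below the run mean of sample wells minus 3.6 SD, in any replicate, cut at about 0.56 in these data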;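 also: stock transfer was 300 nL into about 60 µL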
FGF22 binding: FGF22 (human) thermal shift binding; Q9HCT0; recombinant FGF22 thermal shift, SYPRO orange fluorescence; percent of sucrose octasulfate shift, DMSO zero; calls only at 9.99 µM; hit rate 1.5% among 340,000; AID 651658;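 active = melting point raised past a set limit in the mean and every replicate; inconclusive = no clear call; three in four hits are not shown here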
Target sequence (Q9HCT0 whole entry, looked up): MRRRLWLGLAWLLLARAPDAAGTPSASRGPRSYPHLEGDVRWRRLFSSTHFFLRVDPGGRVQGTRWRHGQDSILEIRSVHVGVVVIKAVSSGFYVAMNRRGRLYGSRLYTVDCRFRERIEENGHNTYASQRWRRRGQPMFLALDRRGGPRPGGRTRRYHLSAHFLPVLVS
Active calls of the source: *; i = inactive; ? = inconclusive; · = not tested or not shown; & = joins results of further samples.

SMILES	HNF4A DNA FP	UCH37 inh	MLL AF4-AF9 inh	RanGTP-Impb inh	Vif TR-FRET	Ecoli growth	FGF22 binding
COc1cc(C(O)c2nc(-c3cccc4cccnc34)cs2)ccc1F (centres undefined)	5.3	·	1.4	·	·	·	i
Cc1ccc(C(C)C)c(OCCNCc2ccccc2)c1	0.6	2.2	3.3	3.2	2%	0.6	i
N#CCOc1ccccc1/C=N/n1nnnc1N	-0.6	·	-7.4	0.9	·	·	i
CCc1nn(C(C)C(=O)N2CCN(Cc3ccccc3)CC2)c(=O)c2cc3occc3n12 (centres undefined)	-1.6	-1.6	·	2.2	0%	0.71	·
Cc1ccccc1C(=O)NC1CC2CCCC(C1)N2Cc1ccc(Cl)cc1 (centres undefined)	-2.8	3.9	-0.6	-0.5	-7%	0.61	i
COc1cccc(C(=O)C2CCCN(Cc3cccn3-c3ccccn3)C2)c1 (centres undefined)	1.3	-1.7	8.2	·	-4%	0.67	i
Nc1[nH][nH]c(=O)c1N=Nc1ccccc1	0.2	13	5.5	·	-5%	0.65	i
CCN(Cc1ccccc1)C(c1cccs1)c1nnnn1C1CCCCC1 (centres undefined)	-2.0	1.0	·	1.5	2%	0.68	·
Cc1cc([N+](=O)[O-])nn1CCCC(=O)NC1CCCCC1	-4.1	3.8	-4.5	0.4	?	0.66	i
Cc1ccc(CNC(=O)c2c(C)cc(=O)oc2C)cc1	5.3	12	·	1.1	6%	0.67	·
CSc1ccc(C(=S)N2CCN(C)CC2)cc1	3.2	1.5	·	-0.5	0%	0.65	·
CSc1nc(-c2ccc(Cl)cc2)nn1C(=O)c1ccccc1	-1.2	2.3	2.4	-3.7	·	0.66	i
Cc1nn(-c2ccccc2)c2c1C1(C(=O)N3c4c(cccc41)C(C)CC3(C)C)C(C#N)=C(N)O2 (centres undefined)	-0.1	12	12	-2.5	?	0.68	i
CCOc1ccc2c(c1)C(c1cccs1)=NNC(c1cccnc1)=N2	-0.9	5.5	14	6.9	11%	0.67	i
COc1ccccc1CCNC(=O)C(=O)NCC1OCCN1C(=O)c1ccc(Cl)cc1 (centres undefined)	2.9	-1.2	-5.0	-0.4	-2%	0.66	i
COc1ccc(C2=NS(=O)(=O)N(C)C(C(=O)N3CCOCC3)=C2)cc1	0.4	9.4	3.8	-2.9	·	0.81	i
Nn1c(C2CCC2)nc2ccccc2c1=O	-1.4	·	2.6	-1.2	1%	·	i
C=CCNc1nnc(SCC(=O)N2CCC(C(N)=O)CC2)s1	1.4	1.1	0.2	0.6	-8%	0.67	i
Cc1ccnc(NC(=O)CCN2C(=O)c3ccccc3S2(=O)=O)n1	0.9	0.9	0.5	4.9	3%	0.64	i
O=C1CCC(C2CCc3cc(O)ccc3C2)C1 (centres undefined)	-0.5	-0.7	0.2	·	2%	0.67	i
Cc1cccc2cc(C#N)c(SCC#N)nc12	-1.3	-0.9	-1.5	-0.2	-42%	0.71	i
CCCCCOc1ccc(C(=O)C(c2ccccc2)N2CCOCC2)cc1 (centres undefined)	-1.7	1.2	·	4.1	1%	0.73	·
Cc1c(C(=O)NCc2cccnc2)sc2nc(-c3ccc(F)cc3)cn12	0.4	2.5	6.1	?	26%	0.76	i
CSc1sccc1/C=N/NC(=O)c1ccncc1	0.2	·	-1.5	-1.6	7%	·	i
CN(C)CCCNc1cn[nH]c(=O)c1Cl	-0.5	5.2	-0.5	-1.4	1%	0.69	i
Cc1ccc(NC(=O)CN(C)C(=O)c2cc(S(=O)(=O)N(C)C)ccc2N2CCCC2)cc1	3.3	2.8	1.1	?	-1%	0.7	i
Cc1ccc(-c2csc(N3CCN(c4cc5c(cc4Cl)nc(-c4ccncc4)n5CCN4CCCCC4)CC3)n2)cc1	2.1	·	-0.5	2.4	·	·	i
COC(=O)c1cccc(NC(=O)Cc2ccc(OC)cc2)c1C	2.1	3.4	·	3.4	-4%	0.7	·
CCc1ccc(N(C(=O)c2csnn2)C(C(=O)NC(C)(C)C)c2cccnc2)cc1 (centres undefined)	2.4	-0.8	1.0	3.2	10%	0.66	i
CCCCCCCCN1C(=O)[C@H](CC(=O)N2CCN(C(=O)C3CC3)CC2)C[C@@]2(C(=O)OC)CCCCC=C12	-4.7	·	2.9	·	·	·	i
CCCOc1ccc(C(=O)Nc2ccc(S(=O)(=O)Nc3cc(C)nc(C)n3)cc2)cc1	-4.1	3.9	-1.6	-1.0	·	0.64	i
CC(C(=O)O)c1ccc(-c2ccccc2)c(F)c1 (centres undefined)	-0.1&-1.6	-1.5&-2.5	-3.3&-1.8	1.8	?	0.66&0.71	i
CC(C)CN(C(=O)COC(=O)c1cnc(Cl)c(Cl)c1)c1c(N)n(Cc2ccccc2)c(=O)[nH]c1=O	5.1	3.3	0.0	-1.3	7%	0.72	i
CN1CCN(c2ccc(Cl)cc2NC(=O)/C=C/c2cccc(F)c2)CC1	5.2	5.7	20	2.3	-4%	0.67	i
COc1ccc(C(=O)COC(=O)CNC(=O)c2cccs2)cc1Br	-4.9	-0.1	-2.6	4.0	·	0.69	i
O=c1c2c3c(sc2ncn1/N=C/c1ccncc1)CCCC3	-1.0	·	2.7	0.7	0%	·	i
Cc1onc(-c2ccccc2)c1C(=O)NCCCc1ccccc1	-1.9	0.3	-1.2	·	7%	0.71	i
COc1ccc(-c2csc3nc(-c4cccnc4)nc(N4CCC(C(N)=O)CC4)c23)cc1OC	0.6	3.5	4.7	2.2	-22%	0.71	i
CC(C)C(=O)Nc1cccc(C(=O)Nc2cc([N+](=O)[O-])ccc2Cl)c1	-1.1	0.3	-1.1	-0.4	-5%	0.69	i
Cc1cccc(CN2CCN(C3CN(C4CCCC4)S(=O)(=O)C3)CC2)c1 (centres undefined)	1.1	·	0.7	·	·	·	i
CCC(=O)Nc1ccc(/C(C)=N/NC(=O)c2c(-c3ccccc3Cl)noc2C)cc1	1.4	·	6.1	1.2	6%	·	i
COCCC(=O)N1CCC(Oc2ccc(C(=O)N3CCCCC3CCO)cc2)CC1 (centres undefined)	-1.4	1.0	-2.0	-1.6	5%	0.74	i
CCN(Cc1ccccc1)S(=O)(=O)c1nc2nc(C)c(C)c(C)n2n1	2.0	1.9	·	1.3	-9%	0.67	·
O=C(Nc1ccccc1)c1oc2ccccc2c1NC(=O)C1CC1	61*	-7.2	-0.3	3.9	0%	0.75	i
CN(C)CCOC1(Cc2ccc(F)cc2)CCC(C(C)(C)C)CC1 (centres undefined)	1.6	·	9.3	·	-2%	·	i
CCCS(=O)(=O)Nc1ccc(N2CCCCC2)c(S(=O)(=O)Nc2ccccc2OC)c1	5.8	3.8	17	·	-1%	0.71	i
OC1CCCN(c2c3c(nc4cc(-c5cccc(F)c5)nn24)CCCC3)C1 (centres undefined)	0.1	-41	0.2	2.6	·	0.67	i
CN(C(=S)NC(=O)c1ccccc1)C1CCCCC1	0.3	-0.6	0.7	0.5	0%	0.72	i
COc1ccc(CCc2nc(-c3cccs3)no2)cc1	0.6	3.6	-5.1	5.7	·	0.67	i
Cc1ccc2c(c1)cc(CN(Cc1ccco1)C(=O)COc1ccccc1)c1nnnn12	2.6	1.5	·	-2.0	1%	0.72	·
O=C(Nc1nnc(SCC(=O)N2CCCCC2)s1)c1ccccc1F	2.1	7.5	-0.9	-0.9	·	0.62	·
Cc1cc(C)nc(NS(=O)(=O)c2ccc(NS(=O)(=O)c3ccc(F)c(F)c3)cc2)n1	-3.1	·	-1.9	·	-10%	·	i
COC(=O)c1ccc(NC(=O)c2ccccc2CC[N+](=O)[O-])cc1	0.6	4.7	-1.7	-1.1	-6%	0.68	i
CCCCn1c(N)c(N(CCOC)C(=O)CCc2ccc(OC)cc2)c(=O)[nH]c1=O	2.1	3.1	·	2.2	12%	0.72	·
COc1cccc(Cn2c(-c3nonc3N)nc3ccccc32)c1	7.0	0.5	·	2.5	4%	0.76	·
CCOC(=O)CCc1c(C)c2ccc(OCC(=O)N(CC)CC)c(C)c2oc1=O	3.9	-33	·	-3.5	6%	0.66	·
CCc1cccc(NC(=O)C2CCN(S(=O)(=O)c3ccc4[nH]c(=O)ccc4c3)CC2)c1	-3.4	6.5	40*	2.2	·	0.78	i
COCCNC(=O)CN(c1cc(Cl)ccc1OC)S(C)(=O)=O	0.8	4.6	-25	-0.2	3%	0.7	·
CCOC(=O)CSc1nc2c(cnn2-c2ccc(C)cc2)c(=O)[nH]1	-0.5	0.9	·	-1.6	8%	0.78	·
CC(C)CNC(=O)NC(=O)COC(=O)COc1ccc(Cl)cc1Cl	2.2	4.3	-5.1	0.4	-4%	0.7	i

Among those listed so far, 6 have an NH in an aromatic ring:
SMILES	HNF4A DNA FP	UCH37 inh	MLL AF4-AF9 inh	RanGTP-Impb inh	Vif TR-FRET	Ecoli growth	FGF22 binding
Nc1[nH][nH]c(=O)c1N=Nc1ccccc1	0.2	13	5.5	·	-5%	0.65	i
CN(C)CCCNc1cn[nH]c(=O)c1Cl	-0.5	5.2	-0.5	-1.4	1%	0.69	i
CC(C)CN(C(=O)COC(=O)c1cnc(Cl)c(Cl)c1)c1c(N)n(Cc2ccccc2)c(=O)[nH]c1=O	5.1	3.3	0.0	-1.3	7%	0.72	i
CCCCn1c(N)c(N(CCOC)C(=O)CCc2ccc(OC)cc2)c(=O)[nH]c1=O	2.1	3.1	·	2.2	12%	0.72	·
CCc1cccc(NC(=O)C2CCN(S(=O)(=O)c3ccc4[nH]c(=O)ccc4c3)CC2)c1	-3.4	6.5	40*	2.2	·	0.78	i
CCOC(=O)CSc1nc2c(cnn2-c2ccc(C)cc2)c(=O)[nH]1	-0.5	0.9	·	-1.6	8%	0.78	·

The list goes on:
SMILES	HNF4A DNA FP	UCH37 inh	MLL AF4-AF9 inh	RanGTP-Impb inh	Vif TR-FRET	Ecoli growth	FGF22 binding
CC(C)(C)c1nnc(NC(=O)c2ccc3c(c2)OCO3)s1	-0.8	1.5	-2.3	?	·	0.64	i
O=C(Nc1ccc(F)cc1F)Nc1ccccc1C(=O)NCCN1CCNC1=O	3.2	0.2	0.7	2.5	-12%	0.66	i
COCCN(Cc1ccco1)C(=O)C1CCCN(c2ncnc3c2nc2n3CCCCC2)C1 (centres undefined)	-1.1	3.4	1.4	-0.9	·	0.7	i
Nc1ncc(Br)cc1S(=O)(=O)NCCC(=O)NCCc1ccc(Cl)cc1	2.6	-4.7	1.9	1.2	-17%	0.72	i
N#Cc1cnn2c(-c3cccc(C(F)(F)F)c3)ccnc12	0.6	-61	0.0	1.7	6%	0.66	i
COc1ccc(-c2cnc3c(NC=O)cc(-c4cccc(NS(C)(=O)=O)c4)cn23)cc1OC	2.9	·	-0.6	·	·	·	i
OC(c1cc(-c2ccc(Cl)cc2)nc2ccccc12)C1CCCCN1 (centres undefined)	8.7	·	15	?	1%	·	i
O=C(CC1CCCC1)Nc1cc(S(=O)(=O)N2CCOCC2)ccc1O	5.5	-0.9	0.2	·	·	0.67	i
N#CCC(=O)N1CCN(C=O)CC1	0.1	4.2	-0.6	0.0	4%	0.72	i
Cc1ccc(NC(=O)CN(C)S(=O)(=O)c2cnc[nH]2)cc1C	-3.2	-2.2	·	-0.8	5%	0.71	·
CCOc1cc(/C=C/C(=O)c2ccc(C)cc2)ccc1OCC(=O)N(C)C	-0.2	4.2	7.6	-1.1	-2%	0.68	i
O=C(/C=C/c1ccc2ccccc2n1)N1CCN(c2ccccc2)CC1	5.7	5.9	-0.1	8.0	5%	0.7	i
CC(=O)c1c(C)[nH]c(C(=O)Nc2cc(S(=O)(=O)N3CCCCC3)ccc2C)c1C	2.5	-0.6	1.2	·	-4%	0.69	i
COc1ccc(NC(=O)N(Cc2cc3cc(OC)ccc3[nH]c2=O)CC2CCCO2)cc1 (centres undefined)	-0.7	-13	·	0.5	6%	0.74	·

The list is partial (hit frequency here may not be typical).
